Screening results deposited in PubChem BioAssay by several laboratories.
Mtb growth – M. tuberculosis H37Rv growth inhibitors, H37Rv strain (AID 1626); hit rate 0.95% among 220,000; M. tuberculosis H37Rv growth inhibition; higher % means a stronger effect; inhibition, % at 10 µM; hits with a dose series show IC50 in µM;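 active = confirmed in a dose series; inconclusive = inhibition above 80% but not taken into the dose series; inactive = below 80% or under 30% at every dose of the series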;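 also: bacteria incubated seven days before Alamar blue readout; 0% = bacteria only wells and 100% = bacteria with antibiotic wells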
YopH inh – blocks Yersinia enterocolitica YopH tyrosine phosphatase; inhibition, %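 (about 10 µM by stock and volumes)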; fluorescence Ex485/Em525; hit rate 0.16% among 140,000;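 active = inhibition of 50% or more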;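 also: controls were vehicle for no effect and minimum signal wells for full effect; inactives centre near -20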
Arbovirus inh – blocks arbovirus infection; hit rate 0.37% among 200,000; arbovirus infection cell-based antiviral screen; inhibition, % at 10 µM;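 active = inhibition from about 30%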;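 also: bluetongue infection of BSR cells; cell survival read as ATP light after 72 h; 0% = infected wells without compound and 100% = uninfected wells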
Mtb betalactam – beta-lactam sensitization of Mtb H37Rv; hit rate 0.27% among 330,000; inhibition, % at 25 µM; AID 434955; M. tuberculosis H37Rv growth with meropenem, percent inhibition; hits of this screen are not shown here;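 active = about 74% or more and at least 40 points above the plate without the antibiotic, then above 30% in a dose series; inconclusive = first-round hits that could not be retested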;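 also: growth measured after seven days incubation then overnight dye step; 0% = bacteria only wells and 100% = bacteria with antibiotic; twin plates without the antibiotic show which effects depend on it; some results filed as inactive read as strong as hits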
RecA intein inh – inhibitors of M. tuberculosis RecA intein splicing; P9WHJ3; cell-free RecA intein splicing, fluorescence; inhibition, %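 (about 9 µM by stock and volumes)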; hit rate 0.75% among 290,000; AID 2221; in the data active = inhibition above about 30%; inconclusive = no clear call, values can overlap the other calls;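 also: 0% = vehicle wells and 100% = reference inhibitor control wells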
Target sequence (P9WHJ3 whole entry, looked up): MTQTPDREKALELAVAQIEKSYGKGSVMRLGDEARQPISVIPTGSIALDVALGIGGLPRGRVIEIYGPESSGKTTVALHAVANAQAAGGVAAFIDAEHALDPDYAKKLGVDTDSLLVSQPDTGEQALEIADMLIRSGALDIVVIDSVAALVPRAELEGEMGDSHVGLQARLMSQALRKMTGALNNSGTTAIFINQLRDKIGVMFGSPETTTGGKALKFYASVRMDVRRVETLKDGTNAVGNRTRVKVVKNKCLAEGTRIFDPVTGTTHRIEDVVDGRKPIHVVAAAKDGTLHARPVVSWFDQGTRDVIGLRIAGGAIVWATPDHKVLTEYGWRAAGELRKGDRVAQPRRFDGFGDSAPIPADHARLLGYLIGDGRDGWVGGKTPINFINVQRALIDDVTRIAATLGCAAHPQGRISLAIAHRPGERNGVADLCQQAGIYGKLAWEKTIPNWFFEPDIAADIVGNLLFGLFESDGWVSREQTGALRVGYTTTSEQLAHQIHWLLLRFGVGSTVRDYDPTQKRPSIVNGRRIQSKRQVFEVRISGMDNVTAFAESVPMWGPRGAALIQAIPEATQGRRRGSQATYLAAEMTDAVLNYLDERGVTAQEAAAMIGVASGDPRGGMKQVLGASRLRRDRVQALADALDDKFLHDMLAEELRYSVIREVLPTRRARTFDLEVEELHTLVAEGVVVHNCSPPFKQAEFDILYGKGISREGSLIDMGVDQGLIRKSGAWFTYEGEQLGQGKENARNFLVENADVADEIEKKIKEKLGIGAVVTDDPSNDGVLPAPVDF
Arbovirus inh repeat – second read-out of Arbovirus inh, no call of its own (marks repeat the call); inhibition, %; measured here: 10K subset replicate screen; many hits read low in the repeat;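 first of two repeat runs on a subset; 0% = infected and 100% = uninfected wells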
* hit, by the source's call; ? = inconclusive; · = no result given. Not all compounds are listed; the hit share may differ from the screen's.

SMILES | Mtb growth | YopH inh | Arbovirus inh | Mtb betalactam | RecA intein inh | others
C/C(CC(=O)Nc1ccccn1)=N\NC(=O)c1cccc(C)c1 | -4% | · | -2 | 2 | 41*
COc1ccccc1N1C(=O)c2ccc(C(=O)Nc3ccc(F)cc3)cc2C1=O | · | · | · | -8 | -0.6
CCCCn1c(SCC(=O)Nc2cc(C)on2)nnc1-c1ccco1 | -7% | -21 | -3 | 2 | 0.0
CC(=O)N1CCN(S(=O)(=O)c2cccc(C(=O)NCCc3ccc(Cl)cc3)c2)CC1 | · | · | · | -3 | -1.1
CC(C)(C)c1ccc(/C=N/NC(=S)NCc2ccccc2)cc1 | -4% | -35 | -8 | -5 | -1.0
O=C(c1cccc(F)c1)N1CCN=C1SCc1cccnc1 | 2% | -20 | -3 | 3 | · | Arbovirus inh repeat=-1
CC(C)(C)C(=O)Nc1ccc(N2CCN(c3ccc(C(F)(F)F)cn3)CC2)nc1 | -14% | · | · | -2 | ·
Cc1cccc(Oc2ncc(-c3ccc(Cl)cc3)cn2)c1C | 9% | 14 | -1 | 64 | 12
COc1ccc(Cl)cc1S(=O)(=O)N1CCCC(C(=O)NCc2ccncc2)C1 (configuration not stated) | · | · | · | 6 | -0.6
Cc1ccc(Cl)cc1Nc1nc(-c2sc(NC(=O)c3cccc(Cl)c3)nc2C)cs1 | -9% | 18 | -12 | 1 | 3.2

Retrieved by structure from the entries so far (7):
SMILES | Mtb growth | YopH inh | Arbovirus inh | Mtb betalactam | RecA intein inh | others
CC(C)(C)c1ccc(/C=N/NC(=S)NCc2ccccc2)cc1 | -4% | -35 | -8 | -5 | -1.0
Cc1ccc(Cl)cc1Nc1nc(-c2sc(NC(=O)c3cccc(Cl)c3)nc2C)cs1 | -9% | 18 | -12 | 1 | 3.2
CCCCn1c(SCC(=O)Nc2cc(C)on2)nnc1-c1ccco1 | -7% | -21 | -3 | 2 | 0.0
O=C(c1cccc(F)c1)N1CCN=C1SCc1cccnc1 | 2% | -20 | -3 | 3 | · | Arbovirus inh repeat=-1
Cc1cccc(Oc2ncc(-c3ccc(Cl)cc3)cn2)c1C | 9% | 14 | -1 | 64 | 12
COc1ccccc1N1C(=O)c2ccc(C(=O)Nc3ccc(F)cc3)cc2C1=O | · | · | · | -8 | -0.6
C/C(CC(=O)Nc1ccccn1)=N\NC(=O)c1cccc(C)c1 | -4% | · | -2 | 2 | 41*

More results
SMILES | Mtb growth | YopH inh | Arbovirus inh | Mtb betalactam | RecA intein inh | others
Cc1nc(N2CCN(c3ccccc3)CC2)nc2c1C(=O)CCC2 | -5% | -32 | 7 | -1 | 0.1
O=C(O)c1ccc(NC(=S)NC(=O)c2cccc(COc3ccccc3)c2)cc1 | 1% | · | 2 | 51 | 2.2
Cc1ccc(C(=O)N/C(=C\c2cccc([N+](=O)[O-])c2)C(=O)Nc2cccc(C(=O)O)c2)cc1 | · | · | · | -8 | 0.6
Cc1ccc(Sc2ncccc2C(=O)O)c(C)c1 | 5% | -17 | 4 | -3 | 2.9
Cc1ccc(NC(=O)CNC(=O)c2ccco2)c(Cl)c1 | · | · | · | 0 | 0.1
COc1ccc(C(C)=O)cc1CN(c1ccccc1OC)S(=O)(=O)c1cccs1 | · | · | · | 7 | -0.9
Cc1cc(C)nc(NC2=NCCN2C(=S)Nc2ccc(C)c(C)c2)n1 | -5% | · | · | 17 | 0.3
Cc1cccc(C)c1NC(=O)NN1C(C)CCCC1C (configuration not stated) | 8% | · | 2 | -4 | -5.1
CCCCc1ccc(S(=O)(=O)Nc2ccc(C)c(NS(C)(=O)=O)c2)cc1 | 13% | · | · | 0 | -7.5
Cc1ccc2nc(SC(C)C(=O)Nc3cccc([N+](=O)[O-])c3)[nH]c2c1 (configuration not stated) | 11% | -8 | -19 | 14 | 2.9
O=C(Cc1ccc(S(=O)(=O)N2CCCC2)s1)N1CCOCC1 | -4% | -19 | -5 | -6 | 0.3
Cn1c(SCC(=O)N2CCOCC2)nnc1-c1ccccc1 | -4% | -13 | 4 | -3 | -1.5
COc1cc(SC)ccc1C(=O)N1CCN(c2ccccc2F)CC1 | 3% | · | 4 | 6 | 3.1
S=c1[nH]nc(Cc2ccccc2)n1Cc1ccco1 | -4% | -100 | 13 | -1 | ·
Cn1c(=O)c2c(nc3sccn32)n(C)c1=O | -7% | -5 | 9 | -7 | -1.5 | Arbovirus inh repeat=-2
COC(=O)NC(=S)N1CCOCC1 | -2% | -20 | 2 | -1 | -1.1
CCOc1ccc(NC(=O)COC(=O)CCCc2c[nH]c3ccccc23)cc1 | ? | -30 | 4 | 99 | -0.5
O=C(NCc1ccccn1)NC12CC3CC(CC(C3)C1)C2 | -2% | 4 | 14 | -4 | 1.0
Cc1[nH]n(-c2ccc(Cl)cc2)c(=O)c1/C=N/c1nnc(-c2ccccc2)s1 | 9% | -25 | 6 | 6 | -3.8
CC(C)N(CC(N)=O)C(=O)c1sc2cc(F)ccc2c1Cl | -2% | · | -11 | 2 | -2.9

As a short view, two of the compounds above.
SMILES | Mtb growth | YopH inh | Arbovirus inh | Mtb betalactam | RecA intein inh | others
Cc1[nH]n(-c2ccc(Cl)cc2)c(=O)c1/C=N/c1nnc(-c2ccccc2)s1 | 9% | -25 | 6 | 6 | -3.8
CC(C)N(CC(N)=O)C(=O)c1sc2cc(F)ccc2c1Cl | -2% | · | -11 | 2 | -2.9

Continued:
SMILES | Mtb growth | YopH inh | Arbovirus inh | Mtb betalactam | RecA intein inh | others
COc1ccc(NC(=O)c2sccc2SCc2cccc(C(F)(F)F)c2)cc1 | 10% | -29 | -2 | 5 | 9.2
COc1cccc(Nc2nnc(SCn3nnc4ccccc4c3=O)s2)c1 | 5% | -6 | -5 | -4 | -2.0
COC(=O)c1ccc(NC(=O)CSc2nccn2CCc2ccccc2)cc1 | 7% | -1 | 2 | -5 | 1.6
Cc1ccc(S(=O)(=O)C2(C(=O)Nc3ccc(Br)cc3)CC2)cc1 | -3% | · | 13 | 4 | -1.0
Nc1nc2c(s1)CCc1c-2cnn1-c1ccccc1 | -1% | 19 | -11 | 98 | 98*
CCOc1ccc2ccccc2c1CNCCN1CCOCC1 | 1% | -25 | 0 | 3 | 0.8
COc1cc(Cl)cc(C2NC(=O)NC(C)=C2C(C)=O)c1OCC(=O)O (configuration not stated) | -1% | -29 | 9 | 10 | -4.2
CCOC(=O)CCc1c(C)c2ccc(OCc3nn[nH]n3)cc2oc1=O | -8% | -21 | -6 | 2 | -3.3
CCCc1cc(=O)c2c(O)cccc2o1 | -5% | · | · | -1 | 0.3
Cc1ccc(Cl)cc1NC(=S)N(CCCN1CCOCC1)Cc1ccco1 | 8% | · | 9 | 3 | -0.1
O=C(/C=C/c1ccccc1[N+](=O)[O-])N1CCN(c2ccc(F)cc2)CC1 | 4% | · | -1 | 7 | 1.1
CCOC(=O)N1CCC(N2C(=O)c3ccccc3C2Nc2ccc(C)cc2)CC1 (configuration not stated) | 11% | -45 | -5 | -6 | 2.1
NS(=O)(=O)c1ccc(NC(=O)CSc2ccccc2)cc1 | 2% | · | 4 | -3 | -0.4
Cn1c(C(=O)Nc2ccccc2)cc2sccc21 | 4% | 6 | -4 | -4 | 6.6
Cc1cccc(OCC(=O)Nc2cc(C)ccc2O)c1 | 5% | -9 | 16 | 29 | 4.9
CCOc1ccc(-n2nc3ccc(NC(=O)CC)cc3n2)cc1 | · | · | · | 3 | 2.3
Nc1nc(F)cc(N2CCCCCC2)n1 | 1% | · | 4 | -6 | 0.0
CC(C)(C)c1cc(C(=O)N/N=C/c2ccc([N+](=O)[O-])s2)n[nH]1 | ? | · | · | 100 | -1.9
COc1ccc(/C=C/C(=O)C2CC2)cc1COc1cccc(C)c1C | 21% | · | · | 6 | 5.8
CCN(CC)P(=O)(C(NC(=O)OC)C(F)(F)C(F)(F)C(F)(F)C(F)F)N(CC)CC (configuration not stated) | -1% | -1 | 4 | -6 | 1.8
Cc1ccccc1-c1cc(C(=O)Nc2nc3c(s2)CCCC3)c2ccccc2n1 | 4.4µM* | -29 | 11 | 100 | 4.5
Cc1cccc(NC(=O)c2ccc3c(c2)CCN3S(C)(=O)=O)c1C | · | · | · | -11 | 0.6
O=C(CSc1ccccc1)Nc1nnc(/C=C/c2ccccc2)s1 | -8% | -25 | -17 | 2 | -1.7
CCOc1cccc(C2C(C(=O)c3ccco3)=C(O)C(=O)N2Cc2ccncc2)c1 (configuration not stated) | -2% | -37 | -3 | 7 | 1.8
CCN(CC(=O)NC(=O)NCc1ccco1)Cc1nc2ccccc2c(=O)[nH]1 | -3% | 15 | -4 | 1 | 0.5
O=C(CNC(=O)N1CC(=O)Nc2ccccc21)Nc1ccc(Cl)cc1 | · | · | · | 2 | -3.4
CN(C(=O)CSc1nc(O)cc(=O)n1-c1ccccc1F)c1ccccc1 | · | · | · | 7 | 5.3
O=C(NCc1ccc(F)cc1)C1CCCN(S(=O)(=O)c2ccc(-n3cnnn3)cc2)C1 (configuration not stated) | · | · | · | -2 | -2.6
O=C(CNC(=O)c1ccccc1Br)N/N=C/c1ccccc1O | 6% | · | -29 | -4 | -3.0
COC(=O)c1nn(-c2ccccc2)c(Cl)c1/C=N/OCc1c(Cl)cccc1Cl | · | · | · | -10 | 1.6
CCC(=O)Nc1ccccc1C(=O)N1CCOCC1 | -2% | -12 | -4 | 5 | -2.9
O=C(CS(=O)(=O)c1ccccc1)NC1CCCCC1 | -4% | · | 3 | -2 | -1.7
O=C(O)CC12CC3CC(C1)CC(n1ncc(NCc4ccc(F)cc4Cl)c(Cl)c1=O)(C3)C2 | 7% | · | 4 | 5 | 0.6
O=C1[C@@H]2Cc3c([nH]c4ccccc34)C(c3ccccc3)N2C(=O)CN1C1CCN(Cc2ccccc2)CC1 (some centres not stated) | · | · | · | 83 | 1.4
CCC(=O)c1ccc(OCC(=O)NCCC2=CCCCC2)c(OC)c1 | · | · | · | 71 | 2.7
Cc1nn(CC(=O)Nc2cccc(S(N)(=O)=O)c2)c(C)c1[N+](=O)[O-] | 0% | -15 | 9 | -3 | -2.7
CC12CCC(C/C1=N\OC(=O)c1ccc(F)cc1)C2(C)C (configuration not stated) | -1% | -33 | 8 | 7 | 0.6
O=C(NCC1COc2ccccc2O1)c1ccc(NC(=O)C(c2ccccc2)c2ccccc2)cc1 (configuration not stated) | 30% | -26 | 6 | 1 | -2.1
CCN(CC)CCOC(=O)c1ccc2c(c1)OCCO2 | -5% | 20 | 6 | 4 | 0.7
Cc1c(OC(C)C(=O)NCc2ccncc2)ccc2c3c(c(=O)oc12)CCC3 (configuration not stated) | · | · | · | 91 | -6.6
OC(CN1CCOCC1)Cn1cnc2ccccc21 (configuration not stated) | · | · | · | 4 | -2.4
CCC(C)(C)NC(=O)CN(C(=O)CCC(=O)Nc1ccccn1)c1ccc2c(c1)OCO2 | · | · | · | -4 | 11
Cc1cc(C)c2c(N)c(C(=O)Nc3c(C)n(C)n(-c4ccccc4)c3=O)sc2n1 | · | · | · | 5 | -4.6
O=C(N/N=C/c1ccccc1)c1cc(-c2ccc3c(c2)OCO3)n[nH]1 | 3% | -26 | -4 | 3 | -4.6
COc1cc(NS(=O)(=O)N2CCCC2)cc(OC)c1OC | 4% | -19 | 0 | -1 | 1.2
Cn1c(=NCC(O)COc2ccccc2)sc2ccccc21 (configuration not stated) | 12% | -49 | 19 | 0 | 1.5
CC1CCCC(C)N1CC(O)COCc1ccccc1 (configuration not stated) | · | · | · | -1 | -12
CC1(C)Cc2c(cnn2-c2ccccc2)C(=O)/C1=N\NC(=O)c1ccccc1 | 2% | -5 | -5 | 4 | 0.4
O=C(NCC(=O)N(c1ccccc1)C(C(=O)NC1CCCC1)c1cccnc1)c1ccco1 (configuration not stated) | 5% | -31 | 2 | 4 | -1.6
CCCCN(CC)C(=O)c1ccc2c(c1)OCO2 | 1% | -24 | -2 | 8 | -0.4
Next section:
SMILES | Mtb growth | YopH inh | Arbovirus inh | Mtb betalactam | RecA intein inh | others
COC(=O)C1=C(C)N(c2ccc(C)c(C)c2)/C(=C/c2ccco2)C1=O | 1% | · | -2 | -1 | -2.1
CS(=O)(=O)N(Cc1ccccc1)c1ccc(C(=O)N2CCOCC2)cc1 | 0% | -39 | 2 | 0 | 0.5
CNC(=O)c1c(NC(=O)CS(=O)(=O)c2ccc(Cl)cc2)sc(C)c1C | · | · | · | -10 | -1.5
Cc1ccc(/C=C(\NC(=O)c2ccc(C)cc2)C(=O)NCCCn2ccnc2)cc1 | -3% | · | 25 | -7 | 0.7
COc1ccc(/C=N\NC(=O)COc2ccc(C(C)(C)C)cc2)cc1Cn1nc(C)cc1C | 3% | 7 | 19 | 5 | 0.9
Cc1onc(-c2ccccc2Cl)c1C(=O)N1CCN=C1SCc1cccnc1 | -7% | -1 | 8 | -11 | -0.6
Cc1ccc(/C=N/N2C(=O)C3C(C2=O)C2C=CC3C23CC3)o1 (configuration not stated) | 0% | -15 | -3 | -2 | -1.0
COc1ccc(-c2ocnc2C(=O)Nc2ccccc2N2CCCCC2)cc1 | 20% | -48 | 13 | 53 | ·
